AF4-AF9 inh: inhibitors of AF4 peptide binding to AF9, primary screen, biochemical, AlphaScreen, biotin-AF4 peptide, FLAG-AF9, single point. Protein AF-9 (Homo sapiens), P42568. inhibition, % at 10 µM. 350,000 compounds, 0.47% hits;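 active = every replicate reaching a set inhibition limit, whatever the replicate mean, cut at about 25% in these data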;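 also: 0% = plate neutral control median and 100% = total signal loss; the record names both 10 and 1 µM as test concentration; the first replicate is given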
Target sequence (P42568 whole entry, looked up): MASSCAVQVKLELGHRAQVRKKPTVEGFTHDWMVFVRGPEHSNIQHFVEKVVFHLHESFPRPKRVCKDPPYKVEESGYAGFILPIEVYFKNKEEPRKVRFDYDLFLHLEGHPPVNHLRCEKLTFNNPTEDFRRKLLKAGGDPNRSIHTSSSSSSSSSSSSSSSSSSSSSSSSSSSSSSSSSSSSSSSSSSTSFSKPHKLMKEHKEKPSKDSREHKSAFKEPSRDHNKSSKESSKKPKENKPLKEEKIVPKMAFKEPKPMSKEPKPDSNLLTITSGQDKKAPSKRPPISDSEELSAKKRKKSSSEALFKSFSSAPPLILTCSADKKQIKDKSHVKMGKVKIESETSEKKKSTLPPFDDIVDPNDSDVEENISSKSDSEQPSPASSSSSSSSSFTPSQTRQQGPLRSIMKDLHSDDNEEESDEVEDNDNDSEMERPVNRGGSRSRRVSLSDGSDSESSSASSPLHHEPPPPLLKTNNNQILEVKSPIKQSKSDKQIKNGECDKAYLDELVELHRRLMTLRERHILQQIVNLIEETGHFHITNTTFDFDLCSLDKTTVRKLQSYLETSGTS
FGF22 binding: binders of human FGF22 protein, primary screen, FGF22 synaptogenesis inhibitor project, biophysical, thermal shift, single point | Fibroblast growth factor 22 (Homo sapiens), Q9HCT0 | calls only at 9.99 µM | 340,000 compounds, 1.5% hits | recombinant FGF22 thermal shift, SYPRO orange fluorescence; percent of sucrose octasulfate shift, DMSO zero | AID 651658, 2012;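 active = melting point raised past a set limit in the mean and every replicate; three in four hits are not shown here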
Target sequence (Q9HCT0 whole entry, looked up): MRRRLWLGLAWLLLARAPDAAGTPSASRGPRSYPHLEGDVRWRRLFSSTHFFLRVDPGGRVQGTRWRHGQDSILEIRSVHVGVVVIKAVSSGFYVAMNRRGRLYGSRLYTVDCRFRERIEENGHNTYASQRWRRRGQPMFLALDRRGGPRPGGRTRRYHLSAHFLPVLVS
* hit, by the source's call; i = inactive. Not all compounds are listed. The share of hits here may be higher or lower than overall.

# | SMILES | AF4-AF9 inh | FGF22 binding
1 | Cc1noc(C)c1S(=O)(=O)Nc1ccc2c(c1)C(=O)N([C@@H](C)CO)C[C@H](C)[C@H](CN(C)S(=O)(=O)c1ccc(Cl)cc1)OCCCC[C@@H](C)O2 | -0.3 | i
2 | C[C@H]1CN([C@@H](C)CO)C(=O)c2cc(NC(=O)C3CC3)ccc2O[C@H]1CN(C)Cc1ccc(C(=O)O)cc1 | -2.5 | i
3 | C[C@@H]1CN([C@@H](C)CO)C(=O)c2cc(-c3cncnc3)cnc2O[C@H]1CN(C)Cc1ccccc1 | -2.6 | i
4 | O=C(C[C@@H]1C=C[C@H](NC(=O)c2cccc(F)c2)[C@@H](CO)O1)NCc1ccc(Oc2ccccc2)cc1 | -8.5 | i
5 | C[C@@H]1CCCCO[C@@H](CN(C)C(=O)Nc2ccc(F)cc2)[C@@H](C)CN([C@H](C)CO)C(=O)c2cc(NC(=O)Nc3ccc(F)cc3)ccc2O1 | -0.9 | i
6 | Cc1ccc(S(=O)(=O)N[C@@H]2C=C[C@@H](CC(=O)NC3CCCCC3)O[C@H]2CO)cc1 | 0.0 | i
7 | C[C@H](CO)N1C[C@H](C)[C@@H](CN(C)C(=O)c2ccncc2)OCCCC[C@H](C)Oc2ccc(NS(=O)(=O)c3ccc(F)cc3)cc2C1=O | -4.3 | i
8 | Cc1noc(C)c1S(=O)(=O)N(C)C[C@H]1OCCCC[C@H](C)Oc2ccc(NC(=O)Nc3ccccc3)cc2C(=O)N([C@H](C)CO)C[C@@H]1C | 3.9 | i
9 | Cc1ccc(S(=O)(=O)Nc2ccc3c(c2)C(=O)N([C@H](C)CO)C[C@@H](C)[C@@H](CN(C)S(=O)(=O)c2cccs2)OCCCC[C@H](C)O3)cc1 | -2.3 | i
10 | C[C@H]1CN([C@@H](C)CO)C(=O)c2cccc(NS(=O)(=O)c3cccs3)c2O[C@@H]1CN(C)Cc1ccc(Oc2ccccc2)cc1 | 4.7 | i
11 | C/C=C/c1ccc([C@H]2[C@@H](CN(C)C(C)=O)N(C(=O)NCCC)[C@H]2CO)cc1 | -1.3 | i
12 | C[C@H](CO)N1C[C@H](C)[C@@H](CN(C)C(=O)Nc2ccc3c(c2)OCO3)Oc2ccc(NC(=O)Cc3ccccc3)cc2CC1=O | -1.5 | i
13 | COc1ccc(CN(C)C[C@H]2Oc3ccc(NC(=O)Nc4ccccc4)cc3C(=O)N([C@H](C)CO)C[C@@H]2C)cc1 | -4.6 | i
14 | C[C@@H]1CN([C@@H](C)CO)C(=O)c2cc(NS(=O)(=O)c3cn(C)cn3)ccc2O[C@@H](C)CCCCO[C@H]1CN(C)Cc1ccccc1 | -2.2 | i
15 | COc1ccc(S(=O)(=O)Nc2ccc3c(c2)CC(=O)N([C@H](C)CO)C[C@@H](C)[C@H](CN(C)Cc2ccncc2)O3)cc1 | -0.1 | i
16 | C[C@@H]1CN([C@@H](C)CO)C(=O)c2ccccc2-c2ccccc2CO[C@@H]1CN(C)Cc1cccc(C(F)(F)F)c1 | 0.4 | i
17 | C[C@H](CO)N1C[C@H](C)[C@H](CN(C)C(=O)Nc2ccc(F)cc2)OCCCC[C@H](C)Oc2ccc(N(C)C)cc2C1=O | 8.2 | i
18 | CC(C)NC(=O)N[C@H]1CC[C@H](CCNC(=O)C2CCCC2)O[C@H]1CO | -0.7 | i
19 | C[C@@H]1CN([C@H](C)CO)C(=O)Cc2cc(NC(=O)Cc3ccccc3)ccc2O[C@H]1CN(C)Cc1ccc2c(c1)OCO2 | -2.0 | i
20 | CCCN1[C@@H]2c3cccc(=O)n3C[C@H]1[C@H](CO)[C@H]2C(=O)NC1Cc2ccccc2C1 | 1.6 | i
21 | COC(=O)C[C@H]1CC[C@H]2[C@H](COc3ccc(NC(=O)Nc4cccc(C#N)c4)cc3C(=O)N2C)O1 | 3.2 | i
22 | COc1ccc(CN(C)C[C@H]2Oc3ccc(NC(=O)NC4CCCCC4)cc3CC(=O)N([C@@H](C)CO)C[C@@H]2C)cc1 | 4.4 | i
23 | COc1ccc(S(=O)(=O)N(C)C[C@@H]2Oc3ncc(C#CC4(O)CCCC4)cc3C(=O)N([C@@H](C)CO)C[C@@H]2C)cc1 | -3.1 | i
24 | O=C(c1cccnc1)N1CC[C@H]2[C@H](CO)Nc3ccc(-c4ccccc4)cc3[C@H]21 | 5.4 | i
25 | C[C@@H]1CN([C@@H](C)CO)C(=O)c2cc(NC(=O)Nc3ccc(F)cc3)ccc2O[C@@H]1CN(C)C(=O)Nc1ccc(F)cc1 | 4.1 | i
26 | CCCNC(=O)[C@@H]1[C@@H](CO)[C@@H]2Cn3c(cccc3=O)[C@H]1N2C(=O)C1CC1 | -15.8 | i
27 | C[C@H](NC(=O)C[C@H]1CC[C@H]2[C@@H](COC[C@H](O)CN2Cc2ccc(C(F)(F)F)cc2)O1)c1ccccc1 | -1.4 | i
28 | C[C@H]1CN([C@@H](C)CO)C(=O)Cc2cc(NC(=O)Nc3ccc(C(F)(F)F)cc3)ccc2O[C@H]1CN(C)Cc1ccc(Cl)c(Cl)c1 | -1.2 | i
29 | C[C@H](CO)N1C[C@H](C)[C@@H](CN(C)C)Oc2ccc(NS(C)(=O)=O)cc2C1=O | 0.8 | i
30 | COC(=O)C1=C(C)N(Cc2ccc(C(F)(F)F)cc2)C(=NCc2ccc(OC)cc2)NC1c1cccc(Cl)c1 (configuration not stated) | 1.4 | i

In another format: entries from further up.
Every second line gives: AF4-AF9 inh	FGF22 binding
18. CC(C)NC(=O)N[C@H]1CC[C@H](CCNC(=O)C2CCCC2)O[C@H]1CO
  -0.7	i
19. C[C@@H]1CN([C@H](C)CO)C(=O)Cc2cc(NC(=O)Cc3ccccc3)ccc2O[C@H]1CN(C)Cc1ccc2c(c1)OCO2
  -2.0	i
20. CCCN1[C@@H]2c3cccc(=O)n3C[C@H]1[C@H](CO)[C@H]2C(=O)NC1Cc2ccccc2C1
  1.6	i
21. COC(=O)C[C@H]1CC[C@H]2[C@H](COc3ccc(NC(=O)Nc4cccc(C#N)c4)cc3C(=O)N2C)O1
  3.2	i
22. COc1ccc(CN(C)C[C@H]2Oc3ccc(NC(=O)NC4CCCCC4)cc3CC(=O)N([C@@H](C)CO)C[C@@H]2C)cc1
  4.4	i

(continued)
# | SMILES | AF4-AF9 inh | FGF22 binding
31 | C[C@@H]1CN([C@H](C)CO)C(=O)c2cc(C3=CCCCC3)cnc2O[C@@H]1CN(C)C(=O)Nc1ccccc1 | -0.3 | i
32 | CN(C)C(=O)c1ccc(-c2ccc([C@@H]3[C@@H](CO)N4CCCCN(CCC(F)(F)F)C[C@@H]34)cc2)cc1 | -4.7 | i
33 | COc1ccccc1C(=O)N1C[C@H]2[C@@H](c3ccccc31)[C@@H](CO)N2C(=O)Nc1ccccc1 | 1.2 | i
34 | CN(C)C(=O)[C@@H]1[C@@H](CO)[C@@H]2Cn3c(ccc(-c4cccc(F)c4)c3=O)[C@H]1N2CCc1ccccc1 | 0.0 | i
35 | C[C@H](CO)N1C[C@H](C)[C@H](CN(C)Cc2ccc(Oc3ccccc3)cc2)Oc2ccc(NC(=O)Nc3ccc(C(F)(F)F)cc3)cc2C1=O | 0.6 | i
36 | C[C@H]1CCCCO[C@@H](CN(C)C(=O)Nc2ccc(C(F)(F)F)cc2)[C@@H](C)CN([C@@H](C)CO)C(=O)c2cc(NC(=O)Nc3ccc4c(c3)OCO4)ccc2O1 | -0.4 | i
37 | Cc1ccc(S(=O)(=O)N[C@H]2CC[C@H](CCn3cc(-c4cccc(F)c4)nn3)O[C@@H]2CO)cc1 | 1.2 | i
38 | C[C@@H]1CCCCO[C@@H](CN(C)Cc2ccncc2)[C@@H](C)CN([C@@H](C)CO)C(=O)c2cc(NC(=O)Nc3cccc4ccccc34)ccc2O1 | 2.3 | i
39 | CO[C@H](CN(C)C(=O)C1CC1)[C@@H](C)CN(C(=O)Nc1ccc(C(F)(F)F)cc1)[C@@H](C)CO | -0.5 | i
40 | C[C@@H]1CN([C@@H](C)CO)C(=O)c2cc(NC(=O)CCCN(C)C)ccc2O[C@H]1CN(C)S(=O)(=O)c1ccccc1 | -4.4 | i
41 | OC[C@H]1[C@@H](c2ccc(-c3ccccc3F)cc2)[C@H]2CN(Cc3cncnc3)CCCCN21 | 1.0 | i
42 | CO[C@H]1CN(C)C(=O)c2cc(NC(=O)C3CC3)ccc2OC[C@@H](C)N(Cc2cc(F)ccc2F)C[C@@H]1C | 43.5* | i
43 | Cc1ccccc1S(=O)(=O)N1CCCCN2[C@H](C1)[C@@H](c1ccc(-c3cccnc3)cc1)[C@@H]2CO | -5.3 | i
44 | C[C@@H]1CCCCO[C@H](CN(C)C(=O)Nc2ccc3c(c2)OCO3)[C@@H](C)CN([C@H](C)CO)C(=O)c2cc(NS(C)(=O)=O)ccc2O1 | -0.4 | i
45 | COCC(=O)Nc1ccc2c(c1)C(=O)N(C)[C@@H]1CC[C@H](CC(=O)N3CCc4ccccc4C3)O[C@@H]1CO2 | -2.6 | i
46 | C/C=C/c1ccc2c(c1)O[C@@H](CN(C)Cc1ccc(F)cc1)[C@H](C)CN([C@H](C)CO)S2(=O)=O | 12.3 | i
47 | N#C[C@@H]1[C@@H](c2ccc(-c3ccncc3)cc2)[C@@H](CO)N1C(=O)C1CCCCC1 | -0.9 | i
48 | C[C@H](CO)N1C[C@H](C)[C@H](CN(C)Cc2cncnc2)Oc2cc(-c3ccccc3F)ccc2S1(=O)=O | 3.8 | i
49 | Cc1noc(C)c1NC(=O)N(C)C[C@@H]1OCCCC[C@H](C)Oc2ccc(NS(=O)(=O)c3ccc(F)cc3)cc2C(=O)N([C@H](C)CO)C[C@@H]1C | 1.2 | i
50 | C[C@@H]1CN([C@H](C)CO)S(=O)(=O)c2ccc(/C=C/c3ccccc3)cc2O[C@@H]1CN(C)C(=O)Nc1ccc(F)cc1 | 2.2 | i
51 | C[C@@H]1CN([C@@H](C)CO)C(=O)Cc2cc(NC(=O)Nc3cccc4ccccc34)ccc2O[C@H]1CN(C)S(=O)(=O)c1cn(C)cn1 | 2.3 | i
52 | C[C@H](CO)N1C[C@H](C)[C@H](CN(C)S(=O)(=O)c2ccccc2)Oc2ccc(NC(=O)CCN3CCOCC3)cc2CC1=O | 0.2 | i
53 | Cc1cccc(NC(=O)Nc2ccc3c(c2)C(=O)N(C)[C@@H]2CC[C@@H](CC(=O)NCc4ccccc4Cl)O[C@@H]2CO3)c1 | 1.3 | i
54 | COc1cccc(NC(=O)N(C)C[C@@H]2Oc3ncc(C#Cc4cccnc4)cc3C(=O)N([C@@H](C)CO)C[C@H]2C)c1 | -3.6 | i
55 | CCN1[C@@H]2c3ccc(/C=C/c4ccccc4)c(=O)n3C[C@H]1[C@H](CO)[C@H]2C(=O)N1CCOCC1 | -4.4 | i
56 | O=C(C[C@@H]1C=C[C@H](NC(=O)c2ccncc2)[C@@H](CO)O1)NCC1CC1 | -0.9 | i
57 | CO[C@H]1CN(C)C(=O)c2cc(NC(=O)C3CCC3)ccc2OC[C@H](C)N(Cc2ccc(F)cc2)C[C@@H]1C | 1.0 | i
58 | COCCN1Cc2cc(C(=O)OC)c3c(c2C1=O)c1cc(F)ccc1n3S(=O)(=O)c1ccc(C)cc1 | 0.9 | i
59 | O=C(CN1CCOCC1)N[C@H]1CC[C@H](CCNS(=O)(=O)c2ccccc2F)O[C@@H]1CO | 1.2 | i
60 | C[C@@H]1CN([C@@H](C)CO)C(=O)c2cc(NC(=O)C3CCCCC3)ccc2O[C@H]1CN(C)S(=O)(=O)c1ccccc1 | -2.3 | i
61 | C/C=C/c1ccc2c(c1)O[C@@H](CN(C)CC1CCOCC1)[C@@H](C)CN([C@@H](C)CO)S2(=O)=O | -2.4 | i
62 | C[C@H](CO)N1C[C@H](C)[C@@H](CN(C)S(=O)(=O)c2ccc(C(F)(F)F)cc2)OCc2ccccc2-c2c(n(C)c3ccccc23)C1=O | 6.2 | i
63 | Cc1noc(C)c1NC(=O)NCC[C@H]1CC[C@@H](NC(=O)c2ccccc2)[C@H](CO)O1 | 3.1 | i
64 | O=C(C[C@H]1CC[C@H]2[C@@H](COC[C@@H](O)CN2C(=O)c2ccccc2F)O1)NCc1ccccc1 | -0.4 | i
65 | CC(C)NC(=O)N(C)C[C@H]1Oc2ccc(NC(=O)Cc3cn(C)c4ccccc34)cc2C(=O)N([C@H](C)CO)C[C@H]1C | -10.1 | i
66 | COC(=O)C[C@@H]1CC[C@H]2[C@@H](COc3ccc(NC(=O)Nc4ccc(C#N)cc4)cc3C(=O)N2C)O1 | -8.2 | i
67 | COc1ccc(S(=O)(=O)N(C)C[C@@H]2Oc3ccc(NC(=O)Cc4cn(C)c5ccccc45)cc3CC(=O)N([C@@H](C)CO)C[C@@H]2C)cc1 | 1.9 | i
68 | C[C@H]1CN([C@@H](C)CO)C(=O)c2cc(-c3cccnc3)cnc2O[C@@H]1CN(C)Cc1ccc(Oc2ccccc2)cc1 | 13.0 | i
69 | CNC[C@@H]1Oc2cc(C#CCC3CCCC3)ccc2S(=O)(=O)N([C@H](C)CO)C[C@H]1C | 8.1 | i
70 | COc1ccc2c3c([nH]c2c1)[C@H](CO)N(Cc1ccccc1Cl)CC31CN(C(C)=O)C1 | -0.8 | i
71 | C[C@@H]1CN([C@H](C)CO)C(=O)c2cc(-c3cccnc3)cnc2O[C@@H]1CN(C)C(=O)Nc1ccc(F)cc1 | -3.2 | i
72 | C[C@H]1CN([C@@H](C)CO)C(=O)c2cc(NC(=O)Cn3cnnn3)ccc2O[C@H]1CN(C)C(=O)Nc1ccc(F)cc1 | -1.4 | i
73 | COc1ccc(NC(=O)N(C)C[C@@H]2Oc3ccc(NC(=O)Nc4ccc(C(F)(F)F)cc4)cc3CC(=O)N([C@@H](C)CO)C[C@H]2C)cc1 | 4.9 | i
74 | CC(C)NC(=O)N(C)C[C@@H]1Oc2c(NS(=O)(=O)c3ccc(Cl)cc3)cccc2C(=O)N([C@@H](C)CO)C[C@@H]1C | -2.2 | i
75 | CNC[C@@H]1Oc2c(NC(=O)c3nc4ccccc4s3)cccc2C(=O)N([C@H](C)CO)C[C@@H]1C | 0.3 | i

Compound activity deposited in PubChem by Broad Institute.
